PKD1 inh: inhibitors of human PKD1 kinase, biochemical, fluorescence polarization; Serine/threonine-protein kinase D1 (Homo sapiens), Q15139; PKD1 kinase fluorescence polarization assay; inhibition, %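 (about 10 µM by stock and volumes)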; 0.056% of 200,000 active; AID 797, 2007;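 active = inhibition of 50% or more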;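 also: controls were vehicle for no effect and a reference inhibitor for full effect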
Target sequence (Q15139 whole entry, looked up): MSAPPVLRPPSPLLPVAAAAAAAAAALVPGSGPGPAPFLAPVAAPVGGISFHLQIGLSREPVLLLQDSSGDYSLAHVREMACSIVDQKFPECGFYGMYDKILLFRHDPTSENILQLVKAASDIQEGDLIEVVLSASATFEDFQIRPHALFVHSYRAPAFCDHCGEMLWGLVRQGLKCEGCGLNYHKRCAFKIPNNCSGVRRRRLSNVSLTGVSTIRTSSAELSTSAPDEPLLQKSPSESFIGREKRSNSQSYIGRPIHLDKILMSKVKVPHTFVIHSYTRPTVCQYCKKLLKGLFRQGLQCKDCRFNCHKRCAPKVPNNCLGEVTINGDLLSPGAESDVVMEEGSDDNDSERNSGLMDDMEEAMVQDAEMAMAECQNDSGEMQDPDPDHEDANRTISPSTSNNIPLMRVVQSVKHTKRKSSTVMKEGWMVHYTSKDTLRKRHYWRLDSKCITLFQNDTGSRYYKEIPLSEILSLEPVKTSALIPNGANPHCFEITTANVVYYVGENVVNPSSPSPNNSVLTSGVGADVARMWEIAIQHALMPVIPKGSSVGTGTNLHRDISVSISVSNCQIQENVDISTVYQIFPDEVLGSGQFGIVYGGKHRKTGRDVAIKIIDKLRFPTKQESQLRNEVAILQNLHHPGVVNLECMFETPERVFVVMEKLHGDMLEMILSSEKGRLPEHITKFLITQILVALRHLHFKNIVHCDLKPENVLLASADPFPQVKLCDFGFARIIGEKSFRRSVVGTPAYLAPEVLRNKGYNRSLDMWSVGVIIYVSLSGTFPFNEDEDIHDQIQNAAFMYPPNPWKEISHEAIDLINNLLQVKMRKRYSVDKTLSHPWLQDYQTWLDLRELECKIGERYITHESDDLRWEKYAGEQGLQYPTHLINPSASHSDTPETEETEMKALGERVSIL
HSV replic up: enhancers of HSV replication in host cells, fold increase, host cell viability; 0.005% of 220,000 active; maximum fold increase; AID 1956, 2009; HSV replication augmentation in cells;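 active = peak rise of 1.5-fold or more in the series; tested in PC3 cells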;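 also: first round at 10 µM; read as green reporter fluorescence; hits show the peak of a series up to 25 µM; 1 = signal of infected wells without compound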
RGS16-Gao HTS: modulators of RGS16 binding to Galphao, primary screen, biochemical, human proteins, multiplexed bead flow cytometry. Regulator of G-protein signaling 16 (Homo sapiens) + Guanine nucleotide-binding protein …. bead-based flow cytometry RGS16-Galphao binding, fluorescence; actives lie on both sides. binding response (% of control), % at 10 µM. 0.38% of 220,000 active. AID 1441, 2008;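 active = below 25% or above 175%, edge rows of some plates excepted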;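 also: Galphao activated by GDP with aluminum fluoride before binding; 100% = wells without compound and 0% = beads without RGS; some results beyond the cut were filed as inactive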
GALR2 ag: GALR2 receptor agonists, primary screen, cell-based; GALR2-expressing cells, agonist activation read-out; activation, %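 (tested at 5 µM)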; 0.48% of 140,000 active; AID 803, 2007;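 active = above mean plus 3 SD of all compounds, about 5% in these data, not always enough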;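 also: 0% = vehicle buffer wells and 100% = reference agonist at full effect; tested in CHO reporter cells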
Insulin prom inh: inhibitors of insulin promoter-driven GFP, primary screen, imaging, TRM-6 cells (human fetal islet line), eGFP reporter, cell count. reporter expression induced with tamoxifen. inhibition, % at 2 µM. 0.9% of 130,000 active;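 active = inhibition above the mean plus 3 SD, with well images judged a real hit on visual review, cut at about 60% in these data, passing the limit was not always enough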
Insulin prom inh cell count: also measured in Insulin prom inh; calls as there; normalized cell count, %; measured here: cell count, toxicity; reference of the scale not given here;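 cells exposed to compound for 48 h; stained nuclei by imaging scaled within each plate; lower means fewer cells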
HSV replic up primary fold: recorded beside HSV replic up, whose call it bears; fold increase; compound at 10 µM; measured here: primary screen fold increase 10 uM; tested in PC3 cells;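 GFP signal in the first replicate; 1 = infected wells without compound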
* = called active by the depositor; i = inactive; . = no result given.

structure	PKD1 inh	HSV replic up	HSV replic up primary fold	RGS16-Gao HTS	GALR2 ag	Insulin prom inh	Insulin prom inh cell count
CCCNC(=O)Nc1ccccc1C(=O)Nc1ccc(OC)cc1	6.3	i	0.93	98.1	-1.3	19.4	110.7
COC(=O)c1sccc1NC(=O)c1ccc(OC)cc1OC	21.8	i	0.94	99.3	-1.8	30.0	97.9
COc1ccc(CCNC(=O)CSc2nccc(=O)[nH]2)cc1OC	-3.7	i	1.08	97.6	.	.	.
CC1SCC(=NOCc2c(Cl)cccc2Cl)CS1 (stereo not given)	.	i	1.22	102.9	.	.	.
O=C1CCCc2c1nc(-c1ccco1)n2O	-9.4	i	0.97	100.6	-1.0	.	.
C=CCNC(=O)/C(C#N)=C/c1c(N(Cc2ccccc2)Cc2ccccc2)nc2ccccn2c1=O	4.0	i	0.74	103.8	-0.3	-33.3	119.7
CC(C)Oc1ccc2nnnn2n1	-8.0	.	.	101.2	-1.7	16.7	143.2
CC(=O)Oc1ccc(C(=O)c2ccccc2)c(OC(C)=O)c1	-2.7	i	0.88	97.5	.	35.3	97.9
CCn1cnc2c1c(=O)n(CC(=O)N1CCc3ccccc31)c(=O)n2Cc1ccccc1	3.8	i	0.87	112.2	-1.9	.	.
Cc1cccc(N=Cc2c(O)cc(C)oc2=O)c1	-4.3	i	1.18	101.0	.	.	.
Cc1cccn2cc(CCNC(=O)c3ccco3)nc12	7.1	i	0.89	105.2	-1.9	.	.
CC(C)(C)c1ccc(Oc2ccc(NC(=O)CCCC(=O)O)cn2)cc1	.	i	1.21	109.0	.	.	.
Cc1ccc(C(=O)COC(=O)CNC(=O)C(c2ccccc2)c2ccccc2)cc1[N+](=O)[O-]	-2.3	i	1.05	74.3	-1.1	-6.7	47.4
Cc1ccc(S(=O)(=O)NNC(=O)c2sc(=S)n(C)c2C)cc1	-1.8	i	0.99	82.7	-0.8	.	.
CSCC(O)Cn1ncc2ccccc2c1=O (stereo not given)	.	i	1	98.5	.	.	.
NS(=O)(=O)c1ccc(NC(=O)/C=C/c2cn(-c3ccccc3)nc2-c2cccc(Cl)c2)cc1	-1.4	i	0.74	98.0	.	.	.
Cc1nc2cc(S(=O)(=O)N3CCC(C(=O)O)CC3)ccc2n1C1CCCC1	-2.1	i	1.03	96.3	-1.0	.	.
Cc1cccc(OCCCCNCc2ccccc2)c1	-6.7	i	0.86	109.6	.	.	.
c1ccc(Oc2ncnc3oc(-c4ccccc4)cc23)cc1	-9.6	i	0.91	107.0	-2.8	16.2	118.5
O=C(C[n+]1cccc(/C=N/O)c1)N(Cc1ccccc1)Cc1ccccc1	.	i	1.01	102.8	.	.	.
NS(=O)(=O)c1ccc(CCNC(=O)c2ccc3ccccc3n2)cc1	1.0	i	0.97	95.6	.	.	.
CCOc1ccc2nc(-c3ccccc3)nc(SCC(=O)Nc3ncc(C)s3)c2c1	-7.7	i	0.67	98.2	-1.6	26.7	90.3
CCN(CC)C(=O)CN(C#N)c1nc(C)cc(C)n1	-4.2	i	1.01	105.5	-0.3	.	.
N#Cc1ccc(CSc2nnc(NC(=O)C3CCCO3)s2)cc1 (stereo not given)	-18.4	i	0.79	80.2	0.3	.	.
CCOc1cc(/C=C(/C#N)c2nc3ccccc3[nH]2)ccc1OCc1ccc(C(=O)O)o1	-8.2	i	1.16	103.4	-0.3	.	.
Cc1cccc(NC(=O)CN2C(=O)S/C(=C\c3cc(C)n(C)c3C)C2=O)c1	3.7	i	1.1	97.3	1.2	.	.
CCc1ccc2c(c1)cc(C)c1nnc(SCC(=O)Nc3cc(OC)c(OC)cc3C(=O)O)n12	-2.4	i	1.1	99.5	.	.	.
O=C(Oc1ccc(=O)n(-c2ccccc2)n1)c1cccc(Cl)c1	-12.8	i	1.01	110.4	-1.9	48.6	57.4
C=CCN(c1ccccc1OC)S(=O)(=O)c1ccc(Cl)c(C(=O)Nc2ccc(N3CCOCC3)cc2)c1	2.3	i	0.86	115.4	.	.	.
Cc1cc(NC(=O)CSc2nnc(NCc3ccccc3)s2)no1	.	i	1.05	97.8	.	.	.
COc1cc(NS(C)(=O)=O)cc(OC)c1OC	4.9	i	0.88	99.7	.	.	.
COc1cccc(OCc2cc(/C=N/n3cncn3)ccc2OC)c1	.	i	0.96	98.3	.	.	.
C/C(=N\NC(=O)CCc1c(C)n[nH]c1C)c1ccc([N+](=O)[O-])cc1	.	i	0.88	96.9	.	.	.
COC(=O)c1ccc(NC(=O)C(C)N2C(=O)c3ccccc3C2=O)cc1 (stereo not given)	-6.4	i	0.88	73.1	8.4*	4.0	198.5
Cc1oc2c(c1C(=O)NCCO)CCCC2	-2.3	i	0.96	111.8	-0.5	.	.
O=C(Cc1ccccc1)NNC1CC(=O)N(c2ccccc2)C1=O (stereo not given)	-1.9	i	1	98.0	-0.1	.	.
Clc1ccc(-c2cc(C3CCNCC3)[nH]n2)c(Cl)c1	-1.3	i	0.78	96.1	.	15.4	109.1
CC(=O)Nc1ccc(NC(=O)Cn2cnc3c(cnn3C(C)(C)C)c2=O)cc1	-1.0	i	0.87	103.5	-0.7	-431.2	54.7
N#C/C(=C\c1cccc2ccccc12)c1nn(-c2ccccc2)c(N)c1C#N	9.7	i	0.76	.	0.3	23.3	72.8
Cc1cc(C)c(C(=O)O)c(Cl)n1	-1.2	i	1.02	106.5	.	30.0	114.8
COc1ccc(N(C)S(=O)(=O)c2cccc(C(=O)Nc3cc(OC)ccc3OC)c2)cc1	1.5	i	0.96	105.3	.	30.0	102.6
Cc1ccc(C(C)(C)C)c(OCCCCN2CCCC2)c1	5.5	i	0.83	106.2	-0.6	2.0	97.2
CCOc1ncccc1C(=O)OCC(=O)NCCc1ccc(OC)cc1	-4.3	i	1	87.9	-1.2	21.9	74.2
CC(C)NC(=O)c1cccc(C(F)(F)F)c1	-2.7	i	0.98	101.7	-1.5	52.2	84.9
COC(=O)c1cc(=O)n2c(-c3ccc(OC)cc3)csc2n1	4.5	i	1.03	96.3	-1.6	56.5	67.3
CS(=O)(=O)N1CCC(C(=O)Nc2ccccc2)CC1	-1.6	i	0.74	101.2	-0.4	3.1	106.1
COc1cc(/C=N/NC(=O)CCOc2ccccc2C)cc(Br)c1O	-1.9	i	0.94	97.7	.	.	.
O=C(NCCCN1CCOCC1)c1c(O)c2ccccc2[nH]c1=O	-2.6	i	0.99	105.1	-1.6	.	.
N#Cc1cc(Oc2cccnc2)c(Oc2cccnc2)cc1C#N	-4.4	i	1.02	87.3	-0.1	-16.7	68.0
Cc1ccc(S(=O)(=O)Nc2ccc(N3CCN(C)CC3)nc2)cc1	-5.7	i	0.99	103.7	.	.	.
CN(C)/C=C(\C#N)S(=O)(=O)c1ccc(Cl)cc1	.	i	0.97	97.7	.	.	.
Cc1ccc(C)c(OCC(=O)N/N=C\c2cccn2C)c1	-1.5	i	0.89	106.8	.	-60.0	94.2
COc1ccc(-c2cccc(C(=O)Nc3cccc(C(=O)O)c3)c2)cc1	-5.1	i	1.12	109.7	-0.8	3.2	98.7
Cc1cc(C)n(-c2nc(-c3ccccc3)cs2)n1	-2.9	i	0.893	96.2	-1.4	.	.
Cc1ccc(N(Cc2cc3ccccc3[nH]c2=O)C(=O)c2cccs2)cc1	-6.9	i	0.9	96.5	-0.2	.	.
CC(C)S(=O)(=O)c1cnc(-c2ccccn2)nc1N	.	i	1.22	94.7	.	.	.
CCSc1nnc(Cc2cc(=O)[nH]c(=O)[nH]2)n1-c1cc(C)ccc1C	-5.0	i	0.85	97.4	-1.8	.	.
CCN1C(=O)/C(=C\c2cn(CCC#N)nc2-c2ccc(F)cc2)SC1=S	-1.9	i	1.13	100.8	-0.7	.	.
CCCCc1c(O)nc(N2CCN(Cc3ccccc3)CC2)[nH]c1=O	0.6	i	1.01	100.9	-1.0	30.9	114.3
CCOC(=O)c1ccc(NC(=O)c2nc[nH]c2C(=O)N2CCN(C(=O)OC(C)(C)C)CC2)cc1	.	i	0.96	110.7	.	.	.

Part of the list above, reduced to PKD1 inh and Insulin prom inh:
smiles | PKD1 inh | Insulin prom inh
COC(=O)c1cc(=O)n2c(-c3ccc(OC)cc3)csc2n1 | 4.5 | 56.5
CS(=O)(=O)N1CCC(C(=O)Nc2ccccc2)CC1 | -1.6 | 3.1

Next compounds
structure	PKD1 inh	HSV replic up	HSV replic up primary fold	RGS16-Gao HTS	GALR2 ag	Insulin prom inh	Insulin prom inh cell count
N#Cc1cc([N+](=O)[O-])c(-n2nnc3ccccc32)c([N+](=O)[O-])c1	-1.3	i	0.94	99.6	-1.7	.	.
O=C(Nc1nc2ccccc2n1CCN1CCCC1)C1CCCCC1	0.5	i	0.993	98.6	-0.1	.	.
COc1cc2nc(CN(C)Cc3ccc(C(C)(C)C)cc3)[nH]c(=O)c2cc1OC	1.4	i	0.94	57.5	.	.	.
O=C(CNS(=O)(=O)c1ccccc1)Nc1cccc([N+](=O)[O-])c1	4.5	i	0.92	100.0	.	17.6	125.6
CCOC(=O)c1cnn(CCOC(=O)C2CC2)c1NC(=O)C1CC1	9.4	i	0.79	95.7	-0.7	.	.
O=C(N/N=C/c1ccncc1)c1cc([N+](=O)[O-])cc([N+](=O)[O-])c1	-0.7	i	0.81	112.4	-1.0	18.2	95.5
COc1cc(CC(NC(C)=O)C(=O)NC2CCN(c3c4c(nc5ncnn35)CCC4)CC2)cc(OC)c1 (stereo not given)	-1.2	i	0.9	109.5	.	-25.0	134.5
O=C(O)COc1ccc2c(c1)CCCC2	-4.1	i	0.84	87.7	-2.0	-35.3	194.8
COc1cc(/C(C)=N/NC(=O)CSc2nnc(C)s2)ccc1O	.	i	0.95	91.8	.	.	.
CCOC(=O)c1c(C)[nH]c(=S)c(C#N)c1-c1ccc(Cl)cc1	0.0	i	1	54.9	-0.1	-43.8	54.9
Cc1ccc(NC(=O)N(Cc2ccco2)C(C)c2ccco2)cc1C (stereo not given)	5.1	i	0.99	109.1	-1.0	3.1	109.8
CCN1CCN(C(=O)c2ccc(N3CC4CC(C3)c3cccc(=O)n3C4)c([N+](=O)[O-])c2)CC1 (stereo not given)	-3.2	i	1.07	106.7	.	-33.3	189.2
COc1cccc2cc(-c3ccnc(=S)[nH]3)oc12	-0.3	i	1.01	98.2	.	26.7	118.5
O=C(COc1ccc(Cl)cc1)OCC(=O)N1CCCc2ccccc21	-4.7	i	0.92	103.2	-1.1	.	.
O=C(O)CCNC(=O)c1cncc(Br)c1	-0.9	i	0.94	93.3	-1.2	12.5	91.3
C=CCSc1nc(N)cc(=O)[nH]1	.	i	1.21	99.5	.	.	.
CS(=O)(=O)N(CC(=O)N1CCN(Cc2ccc3c(c2)OCO3)CC1)c1ccc2c(c1)OCO2	0.7	i	0.66	109.1	-0.2	-13.5	69.7
CCC1(C)Cc2sc3c(=O)[nH]c(=S)[nH]c3c2CO1 (stereo not given)	-4.9	i	1.04	107.9	.	18.8	127.3
Fc1ccc(-c2noc(-c3ccc4c(c3)CCO4)n2)cc1	.	i	1	103.5	.	.	.
CSc1nc2c(c(=O)n1-c1ccccc1)SCC2	-12.1	i	0.86	102.6	-1.6	-19.4	104.5
Cc1cc(C(=O)N/N=C/c2ccccc2[N+](=O)[O-])c(C)o1	-2.5	i	1	130.4	.	.	.
O=C(Nc1ccccc1)c1ccc(CN2CCc3ccccc3C2)cc1	0.0	i	1.07	103.6	.	-18.8	74.7
COc1ccccc1N(CC(=O)N1CCCCCC1)S(C)(=O)=O	6.5	i	0.85	114.6	-1.1	-7.1	118.4
COc1ccc(-c2nnnn2-c2ccc(F)cc2F)cc1	-1.8	i	1	103.1	.	5.0	84.2
CCOC(=O)/C(C#N)=C/c1cc2ccc(C)cc2nc1Cl	-5.1	i	1.07	98.5	-0.4	64.7	128.7
Cc1ccc(S(=O)(=O)N2CCOCC2)cc1NC(=O)COC(=O)c1ccccc1OCc1c(C)noc1C	1.0	.	.	108.0	0.3	-69.2	97.8
O=C(CCc1ccc(CCC(=O)c2cccs2)s1)c1cccs1	6.9	i	1	98.7	-2.0	.	.

Compound activity: PubChem, several laboratories
